High-throughput results (PubChem)
HSD17B inhib: qHTS Assay for Inhibitors of HSD17B4, hydroxysteroid (17-beta) dehydrogenase 4; 3-hydroxyacyl-CoA dehydrogenase type-2 (Homo sapiens), Q99714; AID 893, 2007; recombinant HSD17B10, NADH fluorescence kinetic; many of its hits are not listed in these tables; 75,000 compounds, 7.6% hits; Potency, µM (titrated, usually from 57.1 µM), without a hit: top-dose activity change, negative = inhibition, usual class: inhibitors; active = well fitted inhibition curve with a large enough effect; inconclusive = small, poorly fitted or top-dose-only effect; inactive = no such curve, though single readings can be large or run the other way;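 also: the protocol describes HADH2 (HSD17B10) and not the HSD17B4 of the title; nearly all actives have a fitted effect of over 70% in size; most hits overshoot -100% by far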
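Enzyme plus compound, 15 min room temperature; substrate mix added (NAD+ 1 mM, beta-hydroxybutyryl-CoA 90 uM final); plates read kinetically for NADH fluorescence. HADH2 was His-tagged, E. coli-derived, 20 nM.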
Starred values were filed as active, the others as inactive; ? = inconclusive; [ ] = another dose, or the depositor's remark. % is scaled to controls: 0 for no effect and ±100 for the full control effect; potency is read from the fitted curve at half-maximal effect. Not all compounds are listed; count on the stated rates, not on these rows.

SMILES	HSD17B inhib
CCN1CCN(S(=O)(=O)c2ccc(S(=O)(=O)N(CC)Cc3ccccc3)cc2)CC1	2.4%
O=c1c(-c2ccc(Cl)cc2)nc2cncnc2n1Cc1ccccc1	-24.8%
CC(C)c1nnc(NC(=O)CCCC(=O)O)s1	-4.6%
COCCn1c(SCC(=O)Nc2cc(Cl)ccc2OC)nc2c(c1=O)SC(C)C2 (centres undefined)	4.7%
Cc1cccc(NC(=O)c2cc(NC(=O)c3ccco3)ccc2Cl)n1	-9.0%
CC12CN3CCN(CC(C3)C1(O)CN1CCOCC1)C2 (centres undefined)	2.5%
Cc1nnc(NC(=O)CSc2nnc(Cc3ccccc3)n2-c2ccccc2)s1	-6.6%
Cc1cc(C)n2nc(SCC(=O)Nc3c(C)nn(-c4ccccc4)c3C)nc2n1	0.5%
COc1ccc(-n2ncc3c(=O)n(CC(=O)OCc4ccccc4)cnc32)cc1	3.98µM*
CCC1(C)CC(=O)N(c2ccc(C(=O)O)c(O)c2)C1=O (centres undefined)	-1.5%
COc1ccc(S(=O)(=O)N(C)CC(=O)Nc2cccc(C(C)=O)c2)cc1	-3.8%
OC(c1ccccc1)c1nc2ccccc2s1 (centres undefined)	0.8%
CCOc1cccc(OCCCCn2ccnc2)c1	0.7%
COc1ccc(CCNC(=O)C2CCC(CNc3c(N4CCCC4)c(=O)c3=O)CC2)cc1OC (centres undefined)	5.3%
CC(=O)c1cccc(NC(=O)Nc2c(C)nn(C)c2C)c1	3.8%

Copied from the entries so far, 2 compounds:
SMILES	HSD17B inhib
CCN1CCN(S(=O)(=O)c2ccc(S(=O)(=O)N(CC)Cc3ccccc3)cc2)CC1	2.4%
O=c1c(-c2ccc(Cl)cc2)nc2cncnc2n1Cc1ccccc1	-24.8%

(cont.)
SMILES	HSD17B inhib
COC(=O)NC(/C(C(=O)OC)=C(\C)NCc1ccccc1)c1cccs1 (centres undefined)	-10.8%[11.4 µM]
CN1C(=O)c2ccc(C(=O)NCc3ccccc3)cc2C1=O	7.2%
CCC1C(=O)N=C(SCC(=O)Nc2ccc(C(=O)OC)cc2)NC1=O (centres undefined)	2.5%
COc1cccc(OCC(=O)Nc2ccc(OC)c(OC)c2)c1	0.0%
COCCn1c(=S)[nH]c2cc(C(=O)N3CCN(c4ccc(F)cc4)CC3)ccc2c1=O	0.5%
O=c1c(-c2ccc(F)cc2)nc2cnc(Oc3ccccc3)nc2n1C1CC1	-3.0%
NC(=O)CSc1nnc2sc3ccccc3n12	5.1%
c1ccc2c(c1)[nH]c1nc3nncn3nc12	-4.0%
Cc1cc(C(=O)CSc2nnc(Nc3ccccc3)s2)c(C)n1CC1CCCO1 (centres undefined)	-2.6%
CCC(C(=O)Nc1ccccc1OC)n1c(C(=O)OC)cc2ccsc21 (centres undefined)	-7.4%
Nc1nc(SCC(=O)N2CCc3ccccc32)[nH]c(=O)c1-c1ccccc1	1.3%
CCn1c(SCC(=O)Nc2c(C)n(C)n(-c3ccccc3)c2=O)nnc1-c1cccc(C)c1	0.2%
Cn1cccc1C(=O)N1CCN(c2cccc(C(F)(F)F)c2)CC1	-4.8%
O=C(NCCN1CCOCC1)c1csc2c1CCCC2	5.7%
CCc1nn(C(C)C(=O)N2CCc3ccccc3C2)c(=O)c2cc3occc3n12 (centres undefined)	2.2%
COc1ccc(NC(=O)CSc2nnc(-c3ccccc3)n2N)cc1	-1.0%
CCn1ncc(C2=NOC(C(=O)NCc3ccc(OC)cc3)C2)c1C (centres undefined)	-0.9%
N[C@@H](Cc1cc(-c2ccc(Cl)cc2Cl)cc(CP(=O)(O)O)c1O)C(=O)O	12.6µM*
Cc1[nH]c(=O)[nH]c(=O)c1S(=O)(=O)N1CCCC(C(=O)NCc2ccco2)C1 (centres undefined)	9.3%
CCN(CC)c1ccc(NC(=O)CN2CCN(c3ccccc3F)CC2)cc1	-2.8%
CCCCn1nnnc1NCc1cccc(OC)c1OC	9.1%
CC(Sc1ncc(C#N)c(N)n1)C(=O)Nc1ccccc1 (centres undefined)	-5.4%
Cc1cc(=O)[nH]c(SCC(=O)c2ccc(C)c(C)c2)n1	-2.2%
CCCc1cc(C(=O)Nc2ccccc2SC)no1	-22.5%
CCOc1ccc(C2=[N+]([O-])C(C)(C)N(O)C2(C)C)cc1	3.4%
COc1ccc(-n2nnc3c(SCC(=O)N4CCCc5ccccc54)ncnc32)cc1	4.4%
CC(=O)N1CC=CC1(C)C(=O)O (centres undefined)	-0.2%
COc1cccc(C2(O)CCN(C(=O)C3CCC3)CC2)c1	7.3%
COc1ccc(C2C(C#N)=C(N)Oc3cc(O)ccc32)cc1OC (centres undefined)	-9.0%
Cc1cccc(OCC(=O)NCCN2CCOCC2)c1	-2.4%
O=C(O)c1cccc(NC(=O)c2ccccc2)c1	3.1%
COc1ccc(Cc2noc(-c3ccc(OC)c(OC)c3)n2)cc1OC	-11.8%
CCCCOc1ccc(OC(=O)c2cccnc2)cc1	1.0%
CCCNC(=O)OC[C@H]1O[C@@H](CCO/N=C2/[C@H]3O[C@@H]3[C@@H](O)[C@H]3[C@H]2CCn2c(=O)n(-c4ccccc4)c(=O)n23)C=C[C@@H]1Oc1ccc(OC)cc1	5.9%[11.4 µM]
CCN1CCc2nc(SCC(=O)Nc3ccc(OC)cc3)c(C#N)cc2C1	-19.6%
COc1cccc2c(=O)n(CC(=O)Nc3cccc(F)c3)ccc12	-9.6%
CCOc1ncccc1C(=O)OCCN1C(=O)c2ccccc2C1=O	10.5%
CC(=O)Nc1nc(NC(C)=O)c2[nH]c(CO)nc2n1	-2.3%[11.4 µM]
Cn1c(=O)c2c(nc(SCc3nn[nH]n3)n2Cc2ccccc2F)n(C)c1=O	1.6%
CN1CCN(Cc2nc3c(c(=O)n(C)c(=O)n3C)n2Cc2cccc3ccccc23)CC1	2.5%
COC(=O)c1ccc(OC)c(CSc2nnc(COc3ccccc3)o2)c1	-8.3%
CC(C)=CCC/C(C)=C/CO/N=C1/C[C@@H](O)[C@@H](O)[C@@H]2[C@@H]3C(=O)N(C(C)(C)C)C(=O)[C@H]3CC[C@@H]12	-1.5%[11.4 µM]
COc1ccc(S(=O)(=O)Nc2ccc3oc(C)c(C(=O)O)c3c2)cc1	0.1%
COc1cc(C(=O)O)ccc1OCC(=O)N1CCOCC1	-0.9%
CC(C)COC(=O)COc1cc(Cl)c(Cl)cc1Cl	-4.4%
COCC(=O)N1CCC2(CC1)CCN(c1ccccn1)CC2	?
CS(=O)(=O)Nc1cccc(-c2nc(NCc3cccs3)c3ccccc3n2)c1	?
CC(C)n1c(C(=O)OCC(=O)NCc2ccc3c(c2)OCO3)cc2sccc21	?
O=C1CCCCCN1C(=O)c1ccc(C(=O)N2CCCCCC2=O)cc1	0.0%
Cc1ccc(-n2c(=O)c3sccc3n(CC(=O)NCc3ccco3)c2=O)cc1	5.0%
COc1ccccc1OCc1nc(C#N)c(N2CCC(C(N)=O)CC2)o1	3.4%
Cc1ccc(NC(=O)c2cnn(-c3ccccc3)c2NC(=O)c2ccco2)cc1C	-0.6%
COC(=O)c1ccc(Oc2cc(C)nc(NCc3ccccc3)n2)cc1	-13.2%
COc1cccc(-c2nccc(NC3CCNCC3)n2)c1	-0.4%
COc1ccc(N(Cc2cc3cc(OC)ccc3[nH]c2=O)C(=O)C2CCCO2)cc1 (centres undefined)	31.6µM*
Cc1ccc(-c2nn(CC(=O)Nc3ccc4c(c3)nc3n4CCOC3)c(=O)c3ccccc23)cc1	?
O=C1CCC(c2ccccc2)(c2ccccc2)CC1	3.8%[11.4 µM]
Cc1noc(C)c1C(=O)N1CCC2(CC1)CN(c1cccc(-c3ccccc3)c1)C2	25.1µM*
CC12CCC(C(=O)N3CCc4ccccc43)(CC1=O)C2(C)C (centres undefined)	4.5%
COc1ccc(-c2cc(=O)c3c(O)cc(O)cc3o2)cc1	-2.8%

Random excerpt: 5 records from the list, in no set order.
SMILES	HSD17B inhib
COc1ccccc1OCc1nc(C#N)c(N2CCC(C(N)=O)CC2)o1	3.4%
CC(C)n1c(C(=O)OCC(=O)NCc2ccc3c(c2)OCO3)cc2sccc21	?
Cc1ccc(NC(=O)c2cnn(-c3ccccc3)c2NC(=O)c2ccco2)cc1C	-0.6%
COc1ccc(-c2cc(=O)c3c(O)cc(O)cc3o2)cc1	-2.8%
COC(=O)c1ccc(Oc2cc(C)nc(NCc3ccccc3)n2)cc1	-13.2%

Back to the main list with the 3 entries that preceded the break.
SMILES	HSD17B inhib
Cc1noc(C)c1C(=O)N1CCC2(CC1)CN(c1cccc(-c3ccccc3)c1)C2	25.1µM*
CC12CCC(C(=O)N3CCc4ccccc43)(CC1=O)C2(C)C (centres undefined)	4.5%
COc1ccc(-c2cc(=O)c3c(O)cc(O)cc3o2)cc1	-2.8%
COc1ccccc1NC(=O)CSc1nnc(Cc2cccn2C)n1-c1ccc(F)cc1	6.4%
NC(=O)c1ccc(NC(=O)CCCc2nc(-c3ccccc3Cl)no2)cc1	-0.4%
N#Cc1c(-n2cccc2/C=N/O)sc2c1CCCC2	-8.9%
CCCn1nc2ccccc2c1P(=N)(N1CCOCC1)N1CCOCC1	-14.6%
COCC(=O)NCc1nc2ccccc2n1Cc1ccccc1F	-1.5%
COc1cccc(-n2c(SC3CCOC3=O)nc3ccccc3c2=O)c1 (centres undefined)	-15.8%
CC(=O)Nc1ccc(S(=O)(=O)NC(CC(=O)N(C)Cc2ccccc2)C(C)C)cc1 (centres undefined)	-0.3%
Nc1ncnc2c1ncn2[C@@H]1CCCO1	-4.0%
CCOC(=O)CCN1CCN(C(=O)c2ccc(-n3c(=O)c(=O)[nH]c4ccccc43)cc2)CC1	-23.9%
O=C(O)CSCCc1ccccc1	3.9%[11.4 µM]
CCOC(=O)Cn1c(=O)c2c(nc(N3CCCCC3)n2Cc2ccccc2)n(C)c1=O	-4.0%
COc1ccc(C(=O)COC(=O)CCn2nnc(-c3cccs3)n2)cc1	17.9%
Cc1cc(C(=O)Nc2ccccn2)no1	-1.5%
CCn1ncc(C2=NOC(C(=O)N3CCN(c4ccccc4)CC3)C2)c1C (centres undefined)	2.9%
COc1ccccc1C1/C(=C(/O)c2ccc(Cl)cc2)C(=O)C(=O)N1CCN1CCOCC1 (centres undefined)	0.1%
CCOC(=O)C(C(=O)OCC)=C1OC(=O)c2ccccc21	-0.9%
N#Cc1c(N)nc(SCC(=O)OCc2ccccc2)c(C#N)c1-c1ccco1	25.1µM*
CCc1ccc(C2CC(c3ccc(C)cc3)n3nc(N)nc3N2)cc1 (centres undefined)	4.3%
CCOC(=O)CC1=NS(=O)(=O)c2ccccc2N1	7.3%
C/C(=C1\SC(N2CCOCC2)=NC1=O)c1ccccc1	-2.9%
O=C(c1cc2c(s1)CCCCC2)N1CCN(c2ncccn2)CC1	-4.5%
CN(C(=O)c1cccc(C#N)c1)c1nnc(C2CCOC2)s1 (centres undefined)	14.1%
CCCn1nnc(NC(=O)c2ccccc2Br)n1	4.5%
O=C(O)c1ccccc1NS(=O)(=O)c1ccccc1C(F)(F)F	7.4%
Clc1ccc(Oc2cccc(/C=N/n3cnnc3)c2)cc1	-4.0%
CCN(CC)CC(C)CNC(=O)CC(C(=O)N1CCc2ccccc21)n1ccnc1 (centres undefined)	2.5%
O=c1cnc2cnc(Oc3cccc(Cl)c3)nc2n1CCc1ccccc1	-4.8%
CCOc1ccc(Nc2nc(Cc3nnc(SCC(N)=O)o3)cs2)cc1	-12.1%
CN(C)CCCCNC(=O)c1ccc(Cc2nc3ccccc3[nH]2)cc1	5.3%
Cc1c(Nc2ncnc3nc[nH]c23)c(=O)n(-c2ccccc2)n1C	13.0%
COc1cc(C(C)=O)ccc1OCC(O)CN1CCN(S(=O)(=O)c2ccccc2)CC1 (centres undefined)	-11.4%
CCOC(=O)C1=C(C)NC(SCC(=O)O)=NC1c1ccccc1 (centres undefined)	-4.7%
CO[C@H]1COC(=O)C/C=C\[C@H](C)[C@@H](OC)COC(=O)[C@@H](C)COC(=O)C/C=C\[C@@H]1C	1.6%[11.4 µM]
COc1ccc(OC)c(CN2CCN(C(=O)c3cccc4ccccc34)CC2)c1	-2.5%
CN(CC(=O)N1CCc2ccccc21)S(=O)(=O)c1ccc(Cl)cc1	3.6%
CC(=O)OCCCN1C(=O)c2ccc(Br)cc2C1=O	-7.9%
CCOc1ccccc1NC(=O)CSc1nnc(CNC(=O)c2ccco2)o1	5.3%
CN(C(=O)CSc1nc(-c2ccc(F)cc2)cs1)C1CCS(=O)(=O)C1 (centres undefined)	-4.1%
CC(=O)NC(O)C(=O)c1ccccc1 (centres undefined)	3.4%
CSc1nnc(-c2ccc(F)cc2)o1	3.6%
CC(C)(C#N)Nc1ccccc1	3.3%
Cc1ccc(CSC(N)=Nc2ccccc2)cc1C	-7.6%[11.4 µM]
CCOc1ccccc1-c1nn2c(Cc3ccccc3)nnc2s1	?
COc1cc2c(cc1OC)C(C(=O)Nc1ccccn1)C(c1cccnc1)N(C)C2=O (centres undefined)	-10.2%
O=C(CCc1ccccc1)Nc1ccncc1	-2.7%
CN1C[C@@H]2C(c3ccc(Cl)nc3)C3(c4ccc(C#N)cc4)CC2(C3)[C@H]1c1ccccc1 (some centres undefined)	-4.2%
CCSc1nnc(NC(=O)C2(C)Cc3ccccc3C(=O)O2)s1 (centres undefined)	1.5%
Cc1ccc2cc(S(=O)(=O)NCCCC(=O)O)ccc2c1	4.3%
CCOC(=O)c1sc2nc(CSc3nc4ccccc4n3CC)[nH]c(=O)c2c1C	6.5%
CC(C)NC(=O)Cn1c(SCC(=O)N2CCCCCC2)nc2ccccc21	2.0%
CCOC(=O)c1cnc(N(C)C)nc1SC(=N)N	-9.0%[11.4 µM]
Cc1cccc(NS(=O)(=O)c2cccc3cccnc23)n1	8.3%
Cc1c(NC(=O)c2cc(-c3ccc4c(c3)OCO4)on2)c(=O)n(-c2ccccc2)n1C	-1.7%
